Compound activity from PubChem BioAssay.
Vaccinia mCherry = qHTS for Stage-Specific Inhibitors of Vaccinia Orthopoxvirus: mCherry Reporter Primary qHTS; Vaccinia virus mCherry reporter infection, fluorescence; about a quarter of the inactives have no number; Potency, µM (top dose mostly 36.5 µM), for the others: at the top dose activity change, negative = inhibition, hits mostly inhibitors; 310,000 compounds, 0.63% hits; AID 720579, 2013; active = well fitted inhibition curve with a large enough effect; inconclusive = small, poorly fitted or top-dose-only effect; inactive = no such curve, though single readings can be large or run the other way; tested in A549 cells; further: nearly all actives have a fitted effect of over 35% in size; inactives centre near -10
VACV Venus inh = qHTS for Stage-Specific Inhibitors of Vaccinia Orthopoxvirus: Venus Reporter Primary qHTS. 330,000 compounds, 0.46% hits. Potency, µM (doses to about 36.5 µM), inactives show at the top dose activity change, negative = inhibition, actives largely listed as inhibitors. Vaccinia virus Venus reporter expression, fluorescence; active means well fitted inhibition curve with a large enough effect; inconclusive means small, poorly fitted or top-dose-only effect; inactive means no such curve, though single readings can be large or run the other way; tested in A549 cells; further: nearly all actives have a fitted effect of over 30% in size; inactives centre near -10
The depositor's hits bear a star. On the % scale 0 is the no-effect control and ±100 the full control effect; potency means the concentration at half of the fitted maximal effect.

The first 2 entries, ahead of the listing:
`CC(C)c1nc(SCC(=O)Nc2ccc(C(=O)O)cc2)c2c3c(sc2n1)CCCC3` gave Vaccinia mCherry -15.0% and VACV Venus inh -18.0%.
Cc1cc(OCCN2CC(C)OC(C)C2)ccc1[N+](=O)[O-] (stereo not drawn) was read as Vaccinia mCherry -16.2% and VACV Venus inh -1.3%.

All compounds of this part, from the start:
`CC(C)c1nc(SCC(=O)Nc2ccc(C(=O)O)cc2)c2c3c(sc2n1)CCCC3` gave Vaccinia mCherry -15.0% and VACV Venus inh -18.0%.
Cc1cc(OCCN2CC(C)OC(C)C2)ccc1[N+](=O)[O-] (stereo not drawn) was read as Vaccinia mCherry -16.2% and VACV Venus inh -1.3%.
Screening S=C(c1ccccc1)N1CCN(c2ccccc2)CC1 returned Vaccinia mCherry -3.4% and VACV Venus inh 0.0%.
CC(=O)N1CCc2cc(S(=O)(=O)NCCN3CCC(C)CC3)ccc21 was read as Vaccinia mCherry -18.8% and VACV Venus inh -18.1%.
Screening O=C1Nc2ccccc2-n2nnnc2C1N1CCN(C(=O)c2ccco2)CC1 (stereo not drawn) returned Vaccinia mCherry 19.4% and VACV Venus inh -6.8%.
CC(=O)c1cccc(N(CC(=O)N2CCCC2)S(C)(=O)=O)c1 was read as Vaccinia mCherry -9.2% and VACV Venus inh -4.6%.
`COC(=O)[C@@]12CCCN1[C@H](c1ccc(-c3ccc(Cl)c(Cl)c3)c(OC)c1)[C@H]1C(=O)N(C)C(=O)[C@H]12` gave Vaccinia mCherry inconclusive and VACV Venus inh -16.0%.
CC(C(=O)NC1CCCc2ccccc21)N1CCN(c2ccc(F)cc2)CC1 (stereo not drawn) was read as Vaccinia mCherry -2.7% and VACV Venus inh -23.3%.
Screening CCN(C(=O)Cn1nnc2sc3c(c2c1=O)CCC(C(C)(C)C)C3)c1cccc(C)c1 (stereo not drawn) returned Vaccinia mCherry 0.6% and VACV Venus inh -4.4%.
`Cc1cccc(NC(=O)CSc2nnc(CNC(=O)c3ccco3)o2)c1C` gave Vaccinia mCherry -14.8% and VACV Venus inh 3.2%.
COc1ccc(NC(=O)CS(=O)c2ccccc2Cl)cc1 (stereo not drawn) was read as Vaccinia mCherry -14.2% and VACV Venus inh -8.3%.
For COc1ccc(Cc2nnc(NS(=O)(=O)c3ccc([N+](=O)[O-])cc3)s2)cc1 the results were Vaccinia mCherry -26.9% and VACV Venus inh 2.9%.
For COC(=O)CN1C(=S)N(C)C(=O)C1CC(=O)Nc1ccccc1 (stereo not drawn) the results were Vaccinia mCherry -4.8% and VACV Venus inh -4.5%.
COc1cccc(NC(=S)Nc2cccc3ccccc23)c1 was read as Vaccinia mCherry inconclusive and VACV Venus inh -7.1%.
`CC(C)CNC(=O)C1(C)CCCCCN1Cc1ccccc1-c1ccccc1` (stereo not drawn) gave Vaccinia mCherry 14.3% and VACV Venus inh -8.8%.
Screening CCOC(=O)N1CCN(C(=O)CN(C2CCCCC2)S(=O)(=O)c2ccc(F)cc2)CC1 returned Vaccinia mCherry -15.8% and VACV Venus inh -8.8%.
Cc1ccc(-c2nn(-c3ccccc3)cc2CSC(=N)N)cc1 was read as Vaccinia mCherry -9.4% and VACV Venus inh 0.0%.
Screening Cc1ccc(S(=O)Cc2nc(-c3ccc(C(=O)NC(C)c4ccccc4)cc3)oc2C)cc1 (stereo not drawn) returned Vaccinia mCherry -16.7% and VACV Venus inh -14.9%.
For CC(=O)N1CCc2c(sc3c2c(=O)n(CCc2ccccc2)c(=O)n3Cc2ccc(Cl)cc2)C1 the results were Vaccinia mCherry inconclusive and VACV Venus inh -28.3%.
`c1ccn(-c2ccc(N3CCOCC3)cc2)c1` gave Vaccinia mCherry -2.5% and VACV Venus inh -11.8%.
O=[N+]([O-])c1cccc(/C=C/c2nc3ccc([N+](=O)[O-])cc3[nH]2)c1 was read as VACV Venus inh inconclusive.
Screening CN1C(C(=O)NCc2cccc(C(F)(F)F)c2)CC2Cn3c(nc4cc5ccccc5cc43)C21 (stereo not drawn) returned Vaccinia mCherry inconclusive and VACV Venus inh -22.8%.
CCN1CCC(=NNC(=O)c2ccco2)CC1 was read as Vaccinia mCherry -9.9% and VACV Venus inh 0.7%.
Screening O=C1NC(=O)N(Cc2ccccc2)C(=O)/C1=C/c1cnc(-c2ccccc2)nc1 returned Vaccinia mCherry -16.4% and VACV Venus inh -0.9%.
COC(=O)CSc1ncnc2c1cnn2Cc1ccccc1 was read as Vaccinia mCherry -0.7% and VACV Venus inh 6.2%.
`N#Cc1c(-c2ccccc2)nc(-c2cccnc2)[nH]c1=O` gave Vaccinia mCherry -7.4% and VACV Venus inh -10.0%.
For COc1ccccc1N1CCN(C(=O)Cn2c(=O)n3nc(-c4cccc(F)c4)nc3c3ccccc32)CC1 the results were Vaccinia mCherry -6.0% and VACV Venus inh 2.0%.
For O=C(Nc1ccc2oc(-c3ccncc3)nc2c1)c1ccc([N+](=O)[O-])o1 the results were Vaccinia mCherry 10µM* and VACV Venus inh inconclusive.
`Cc1occc1C(=O)Nc1sc2c(c1C(N)=O)CCC(C(C)(C)C)C2` (stereo not drawn) gave Vaccinia mCherry -2.9% and VACV Venus inh -7.5%.
`c1nc(NC2CCNCC2)c2cc(-c3ccc4c(c3)OCO4)ccc2n1` gave Vaccinia mCherry -25.9% and VACV Venus inh -20.9%.
O=C(CNC(=O)N1CC(=O)Nc2ccccc21)NCCc1c[nH]c2ccccc12 was read as Vaccinia mCherry 9.0% and VACV Venus inh -3.6%.
Screening COc1cccc(-c2csc(N3CCN(C(=S)Nc4ccccc4C)CC3)n2)c1 returned Vaccinia mCherry -19.2% and VACV Venus inh -21.6%.
`N#CC1=C2SCN(Cc3ccco3)CN2C(=O)CC1c1ccccc1F` (stereo not drawn) gave Vaccinia mCherry inactive and VACV Venus inh -4.9%.
For O=C(CCNC(=O)c1ccccc1Cl)Nc1ccc(S(=O)(=O)Nc2nccs2)cc1 the results were Vaccinia mCherry inactive and VACV Venus inh -6.4%.
C[C@@H]1CCCCO[C@H](CN(C)C)[C@H](C)CN([C@@H](C)CO)C(=O)c2cc(NC(=O)Nc3ccc(C(F)(F)F)cc3)ccc2O1 was read as Vaccinia mCherry -2.3% and VACV Venus inh inconclusive.
`CN(Cc1ccccc1)C(=O)c1nc(-c2ccc(Cl)cc2)n2c1CCCCC2` gave Vaccinia mCherry 14.0% and VACV Venus inh 8.4%.
`Cc1ccc(CN2CCSc3ccc(C(=O)Nc4ccc(F)cc4F)cc32)cc1` gave Vaccinia mCherry -14.9% and VACV Venus inh -6.9%.
For CC(C)(O)C#Cc1ccc(CN2CCC(n3nccc3NC(=O)C3CC3)CC2)cc1 the results were Vaccinia mCherry inactive and VACV Venus inh -21.4%.
CNC(C(=O)c1ccccc1)C(OC)c1ccc(C)cc1 (stereo not drawn) was read as Vaccinia mCherry -6.7% and VACV Venus inh -7.8%.
Screening N#Cc1ccccc1OCC(=O)N1CC(=O)Nc2ccccc21 returned Vaccinia mCherry inactive and VACV Venus inh -10.0%.
For Cc1onc(-c2c(F)cccc2Cl)c1C(=O)Nc1nc2ccccc2[nH]1 the results were VACV Venus inh -21.2%.
CCOC(=O)N1CCN(C(=O)CSc2ccc(-c3cccc(OC)c3)nn2)CC1 was read as Vaccinia mCherry inactive and VACV Venus inh -8.3%.
CCn1c(=O)n(CC)c2cc(N3CCCC3)c(NC(=O)c3ccccc3F)cc21 was read as Vaccinia mCherry inconclusive and VACV Venus inh -8.3%.
O=C(CN1C(=O)CSC1=O)Nc1ccc(C(=O)O)cc1 was read as VACV Venus inh -17.4%.
CC(=O)c1ccc(N2CCN(C(=O)c3ccccc3SCC(=O)NCc3ccco3)CC2)c(F)c1 was read as Vaccinia mCherry -27.9% and VACV Venus inh -20.3%.
Screening Cc1nc(-c2ccccn2)sc1C(=O)O returned Vaccinia mCherry -2.7% and VACV Venus inh 0.9%.
`Cc1cc(C(=O)NCc2ccc(S(N)(=O)=O)cc2)ccc1[N+](=O)[O-]` gave Vaccinia mCherry inactive and VACV Venus inh -4.2%.
For CC(C)Oc1ccc(S(=O)(=O)N2CCOCC2)cc1NC(=O)CN1C(=O)NC2(CCCC2)C1=O the results were Vaccinia mCherry inactive and VACV Venus inh -12.7%.
COc1cccc(C(=O)N(Cc2ccc(N(C)C)cc2)C2CCS(=O)(=O)C2)c1 (stereo not drawn) was read as Vaccinia mCherry -6.4% and VACV Venus inh 5.5%.
For Cc1ccc(NC(=O)O/N=C/c2cccc([N+](=O)[O-])c2)cc1 the results were Vaccinia mCherry inactive and VACV Venus inh -5.0%.
`CCCCCCCOc1ccc(OC(=O)c2cccnc2)cc1` gave Vaccinia mCherry -0.7% and VACV Venus inh 6.2%.
`O=C(NN1CCOCC1)c1cccc(COc2cccc(Br)c2)c1` gave Vaccinia mCherry -2.6% and VACV Venus inh -3.9%.
Screening N#Cc1c(Nc2ccccc2)[n+]([O-])c2ccc(Cl)cc2[n+]1[O-] returned Vaccinia mCherry -15.2% and VACV Venus inh inconclusive.
Cc1ccc(-c2cc3nc(-c4ccccc4)cc(N)n3n2)cc1 was read as Vaccinia mCherry -11.1% and VACV Venus inh -4.9%.
Screening CCc1ccc(C2CC(c3ccc(C)cc3)Nc3nc(N)nn32)cc1 (stereo not drawn) returned Vaccinia mCherry 100µM* and VACV Venus inh 31.6µM*.
Screening C=CCN1C=CC(=CC=C(C#N)C#N)C=C1 returned Vaccinia mCherry -15.1% and VACV Venus inh 2.3%.
`CC(C)(C)c1ccc(C(=O)N/C(=C/c2cccs2)C(=O)NCc2ccco2)cc1` gave Vaccinia mCherry -19.2% and VACV Venus inh -14.5%.
For O=C(Cc1cccc(C(F)(F)F)c1)N1CCCC1 the results were Vaccinia mCherry -14.9% and VACV Venus inh -29.3%.
For COc1cccc(-c2noc(-c3cc(C(C)C)[nH]n3)n2)c1OC the results were Vaccinia mCherry -11.7% and VACV Venus inh -10.3%.
CC(C)C(NC(=O)OCc1ccccc1)C(=O)NC1CCCCC1 (stereo not drawn) was read as Vaccinia mCherry inactive and VACV Venus inh -1.8%.
Screening CC(=O)Nc1ccccc1-c1nc2ccccc2nc1OCC(=O)c1ccc(Cl)cc1 returned Vaccinia mCherry -19.9% and VACV Venus inh -15.1%.
Screening COc1ccc(-c2cc(C(=O)Nc3c(Cl)cccc3Cl)no2)cc1OC returned Vaccinia mCherry -8.4% and VACV Venus inh -13.7%.
O=C(c1ccc(Br)cc1)N1CCN(Cc2ccccc2)CC1 was read as Vaccinia mCherry -3.0% and VACV Venus inh -14.2%.
`COc1cccc(CNC(=O)c2cc(S(=O)(=O)N3CCCC3)cn2C)c1` gave Vaccinia mCherry inactive and VACV Venus inh -21.7%.
CCCCNC(=O)c1c(N)[nH]c(C(=O)c2ccccc2)c1-c1ccc(Cl)cc1 was read as Vaccinia mCherry 25.7% and VACV Venus inh 3.0%.
CC(NC(=O)C(=O)N1CCOCC1)C(c1cccs1)N1CCN(c2ccccc2)CC1 (stereo not drawn) was read as Vaccinia mCherry inconclusive and VACV Venus inh -16.9%.
CCOC(=O)N1CCN(Cc2cc(=O)oc3cc4c(cc23)CCC4)CC1 was read as VACV Venus inh -10.2%.
Screening NS(=O)(=O)c1ccc(NC(=O)COC(=O)CCCN2C(=O)c3cccc4cccc(c34)C2=O)cc1 returned Vaccinia mCherry -18.5% and VACV Venus inh -11.0%.
`O=C(COc1ccccc1)NCCc1cn2ccsc2n1` gave Vaccinia mCherry inactive and VACV Venus inh -12.4%.
CS(=O)(=O)Nc1ccc(C2=NN(S(C)(=O)=O)C(c3ccccc3)C2)cc1 (stereo not drawn) was read as Vaccinia mCherry inactive and VACV Venus inh -9.3%.
`Cc1ccc(Cc2c(-c3cccc(Br)c3)nc3c(C)cc(Br)cn23)cc1` gave Vaccinia mCherry 3.6% and VACV Venus inh 6.0%.
For COC(=O)c1cn(Cc2ccccn2)c(=O)c2ccccc12 the results were Vaccinia mCherry inactive and VACV Venus inh -2.8%.
Screening CCOCCOC(=O)c1ccc(NC(=O)/C=C/c2ccc(OC)c(OC)c2)cc1 returned Vaccinia mCherry -18.0% and VACV Venus inh -6.3%.
CN1CCN(C(=O)c2ccc(C3SCC(=O)N3Cc3ccco3)cc2)CC1 (stereo not drawn) was read as Vaccinia mCherry -19.5% and VACV Venus inh -5.1%.
COc1cc(C(=S)N2CCN(C)CC2)ccc1OCC(=O)NCc1ccccc1 was read as Vaccinia mCherry -3.1% and VACV Venus inh -0.6%.
Screening C[C@@H]1CN([C@@H](C)CO)C(=O)c2cc(Br)cnc2O[C@H]1CN(C)C(=O)Nc1ccc(F)cc1 returned Vaccinia mCherry -15.4% and VACV Venus inh -13.8%.
For CCN1C(=O)N/C(=C/c2ccc(Sc3ccc(C)cc3)o2)C1=O the results were Vaccinia mCherry -9.6% and VACV Venus inh -2.3%.

Of the compounds above, 6 have an aryl thioether with sulfur outside any ring.
`CC(C)c1nc(SCC(=O)Nc2ccc(C(=O)O)cc2)c2c3c(sc2n1)CCCC3` gave Vaccinia mCherry -15.0% and VACV Venus inh -18.0%.
`Cc1cccc(NC(=O)CSc2nnc(CNC(=O)c3ccco3)o2)c1C` gave Vaccinia mCherry -14.8% and VACV Venus inh 3.2%.
COC(=O)CSc1ncnc2c1cnn2Cc1ccccc1 was read as Vaccinia mCherry -0.7% and VACV Venus inh 6.2%.
CCOC(=O)N1CCN(C(=O)CSc2ccc(-c3cccc(OC)c3)nn2)CC1 was read as Vaccinia mCherry inactive and VACV Venus inh -8.3%.
CC(=O)c1ccc(N2CCN(C(=O)c3ccccc3SCC(=O)NCc3ccco3)CC2)c(F)c1 was read as Vaccinia mCherry -27.9% and VACV Venus inh -20.3%.
For CCN1C(=O)N/C(=C/c2ccc(Sc3ccc(C)cc3)o2)C1=O the results were Vaccinia mCherry -9.6% and VACV Venus inh -2.3%.
